# Assay outcomes from PubChem.
# CDC25B CDK2 inh – human CDC25B-CDK2/CyclinA binding inhibition. HTRF CDC25B-CDK2/CyclinA binding, anti-His/anti-Flag; active compounds read high. z-score (concentration not given with the values). actives 0.72% (n = 94,000). AID 1259370;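 note: score is relative to mean and SD of negative controls; strong numbers were not always called active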
# TAR Tat displ – HIV-1 TAR-Tat binding disruption | AID 1259389 | actives 0.6% (n = 100,000) | z-score (test concentration not listed) | HIV-1 TAR RNA, Tat peptide displacement FRET; active compounds read high;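 note: score is relative to mean and SD of negative controls; some compounds called inactive have numbers as strong as hits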
# The depositor's hits bear a star; . = not tested or not shown.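 Rule for the calls: active = z-score from 3 up in half or more of its runs; inactive = the rest.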 Compounds as they come; about 0.87% have a hit in one of these screens.
# Every second line gives: CDC25B CDK2 inh	TAR Tat displ
CCCSCCCNC(=O)c1cnn2c3c(cnc12)CC(C)CC3 (stereo not drawn)
    .	0.95
Cc1ccc(CNc2nc(=S)[nH]c3ccccc23)o1
    1.06	.
Cc1nn2c3c(nnc2c1-c1ccccc1)C(=O)CC(c1ccccc1)C3 (stereo not drawn)
    -0.61	0.81
O=C(NC1CC1)C1CCCN(S(=O)(=O)c2ccc3[nH]c(=O)oc3c2)C1 (stereo not drawn)
    .	1.16
O=C(Cn1ncc2c(Cl)cccc21)NCCN1CCCC1
    -1.8	-1.08
CCCCN(Cc1ccco1)C(=O)Cn1ncc2c3ccccc3n(CCC)c2c1=O
    .	1.98
COc1cccc(C2CC(c3c(F)cccc3Cl)n3nnnc3N2)c1 (stereo not drawn)
    .	3.83
OCCN1C[C@H](O)[C@@H](O)[C@H](O)[C@H]1CO
    .	0.67
CC(=O)Nc1ccc(S(=O)(=O)N2CCCCC2)cc1Cl
    -0.86	.
COc1ccc(C2OC(c3cc(Br)ccc3OC(C)=O)=NN2C(C)=O)cc1 (stereo not drawn)
    .	-0.55
CC(=O)c1c(C)oc2c(Cl)cc(NS(=O)(=O)c3ccc(Cl)cc3)cc12
    -0.5	.
Cc1noc(/C=C/N2CCOCC2)c1S(=O)(=O)N1CCN(c2ccccc2F)CC1
    .	1.43
COc1cc(C2Nc3cc(C)c(C)cc3NC3=C2C(=O)CC(C)(C)C3)cc(Cl)c1O (stereo not drawn)
    -2.8	-1.77
Cc1ccc(-n2nnnc2-c2ccccc2)cc1
    .	1.34
O=C(O)COc1ccc2c(c1)C(=O)c1cc(OCC(=O)O)ccc1-2
    -0.19	7.22*
Cc1nc(N)nc2c1CSCC2
    -0.73	.
CCOC(=O)c1c(NC(=O)COc2cccc(Br)c2)sc2c1CCC2
    -2.46	-0.63
CNC(=O)C1CCN(c2ccc(=O)n(-c3ccc(F)cc3)n2)CC1
    .	0.6
Cn1c(=O)c2c(nc(SCc3nn[nH]n3)n2Cc2ccccc2)n(C)c1=O
    -2.53	1.51
CCOc1ccccc1Nc1ncnc2onc(-c3cc(F)cc(F)c3)c12
    .	2.6
Cc1c(O)ccc(-c2n[nH]c(C(F)(F)F)c2Oc2ccccc2)c1O
    -0.35	-1.47
COS(C)(=O)=O
    .	0.4
Cc1cccc(NC(=O)CCCc2nc(-c3ccco3)no2)n1
    -1.28	2.02
CCN(CC)CCNC(=O)c1ccc(NC2=NC3CS(=O)(=O)CC3S2)cc1 (stereo not drawn)
    .	0.33
COc1ccccc1-n1c(=O)c(C#N)cc2c(=O)n3cccc(C)c3nc21
    -2.97	-2.13
O=C(O)c1ccc(-c2cc(C(=O)O)c3c(-c4ccccc4)[nH]nc3n2)cc1
    .	1.84
Cc1cccn2c(=O)c3cc(C#N)c(=O)n(CCCN4CCOCC4)c3nc12
    -1.61	0.69
Cc1cc(C)c(S(=O)(=O)Nc2ccc3c(c2)CCC(=O)N3)c(C)c1
    .	2.62
CCc1ccc(-c2cc(C)no2)cc1S(=O)(=O)NC(C)Cc1ccco1 (stereo not drawn)
    .	0.04
Cc1cc(C)c2c(c1)c(C)cc1nnnn12
    -0.07	.

# (further entries)
# Every second line gives: CDC25B CDK2 inh	TAR Tat displ
O=C(NCCCN1CCCCCC1)c1cc(=O)[nH]c2ccc(S(=O)(=O)N3CCCCC3)cc12
    -2.27	.
CCc1cccc(-n2nnc(-c3nc(-c4cccs4)no3)c2N)c1
    .	0.03
CC1CCCN(C(=O)C(=O)Nc2ccc3nc4n(c(=O)c3c2)CCCCC4)C1 (stereo not drawn)
    0.21	2.17
O=C(Nc1ccc(-c2nc3cc(Cl)ccc3o2)cc1)c1ccc([N+](=O)[O-])o1
    -0.56	0.22
O=C(O)C1C2C=CC(C2)C1C(=O)S (stereo not drawn)
    -1.91	.
Cc1cc(NC(=O)N2CCSc3ncccc32)ccc1Br
    .	0.02
CC(Cc1ccco1)NC(=O)c1ccc(N2CCOc3ccc(Cl)cc32)s1 (stereo not drawn)
    -10.9	1.35
COC(=O)c1c[nH]n2c(NC3CCCCCC3)c(-c3ccc(Cl)cc3)nc12
    -1.17	.
CCn1cnc2cc(-c3noc(C(C)NC(=O)c4ccco4)n3)ccc21 (stereo not drawn)
    .	0.6
O=S(=O)(NCCS(=O)(=O)N1CCN(c2ccc(F)cc2)CC1)c1ccc(Cl)cc1
    .	1.43
CC12CN3CC(C)(CN(C1)C3c1ccc(O)c(O)c1)C2=O (stereo not drawn)
    -0.03	2.15
CC(O)c1nc2ccccc2n1C/C=C/c1ccccc1 (stereo not drawn)
    -1.91	0.01
Cc1ccc(-c2nc(-c3ccccn3)no2)c(Cl)c1
    0.63	2.77
Cc1ccc(S(=O)(=O)c2nc(S(C)(=O)=O)sc2N2CC(C)OC(C)C2)cc1 (stereo not drawn)
    -1.61	-1.05
Cc1ccc(C(=O)CSc2nc(C)cc(=O)[nH]2)cc1
    0.33	1.23
CCCCn1c(=O)[nH]c2nc3cc(N(C)C)ccc3nc2c1=O
    1.46	-5.56
COc1ccc(-c2nc3scc(CCNS(=O)(=O)c4ccc(OC)c(OC)c4)n3n2)cc1
    .	0.7
COc1cc(/C=C/c2nc(=O)c3ccccc3o2)ccc1O
    -0.42	9
CCCCOC(=O)c1cnn2c(C(F)(F)F)cc(-c3ccc(OC)c(OC)c3)nc12
    -0.34	1.56
O=C(NC1CCCCC1)c1c(O)c2cccc3c2n(c1=O)CCC3
    .	0.37
O=c1[nH]ncc2c3ccccc3n(Cc3cccc(Cl)c3)c12
    -2.41	0.88
CCCn1c(=S)[nH]c2cc(C(=O)N3CCCC3)ccc2c1=O
    -3.2	.
Cc1nc(C(F)(F)F)ccc1C(=O)NN
    -1.48	.
COc1ccc(CC(=O)Nc2nnc3n2CCS3)cc1OC
    .	-1.49
CCOC(=O)C1CCCN(S(=O)(=O)c2c(C)[nH]c(C)c2C(=O)N2CCCC2)C1 (stereo not drawn)
    .	1.09
CCCNC(=O)c1c(NC(=O)c2csnn2)sc2c1CCCC2
    -0.69	0.39
Cc1ccn2c(=O)c(NC(=O)c3ccc(C(C)(C)C)cc3)cnc2c1
    -0.06	-0.07
Cn1c(C(=O)NCc2ccccn2)c(N2CCCC2=O)c2cc(F)ccc21
    .	0.55
O=c1oc(-c2cccs2)nc2sc3c(c12)CCCCC3
    -0.95	1.1
CC(C)CCNC(=O)CSc1nc2ncccc2[nH]1
    .	0.87

# Next entries.
# Every second line gives: CDC25B CDK2 inh	TAR Tat displ
CCCc1[nH]nc2c1C(c1ccc(O)cc1)C(C#N)=C(N)O2 (stereo not drawn)
    1.36	1.05
Cc1ccc2[nH]c(CSc3n[nH]c(-c4ccccc4)n3)cc(=O)c2c1
    .	0.61
O=C(NCC1CCCO1)c1ccc2cn[nH]c2c1 (stereo not drawn)
    .	-2.01
O=C(CSCc1cnn(-c2ccccc2)c1-n1cccc1)NCCc1cccs1
    -0.29	-3.35
O=C(CCSCc1cnn(-c2ccccc2)c1-n1cccc1)N1CCN(c2ccc(F)cc2)CC1
    -0.33	-2.57
C(=C\c1ccccc1)/CSc1ccccn1
    -1.34	.
CCOC(=O)c1oc2ccc3nc(N(C)C)sc3c2c1C
    -1.56	-1.46
O=C(Cn1c(=O)c2cccn2c2ccc(F)cc21)N1CCN(c2ccc(F)cc2)CC1
    .	1.32
CC1CCCC(NS(=O)(=O)c2ccc(CN3C(=O)c4cccnc4C3=O)s2)C1C (stereo not drawn)
    .	-1.83
O=C1CC(c2cc(Br)cs2)c2cc3c(cc2N1)OCO3 (stereo not drawn)
    0.39	0.87
Cc1csc(-c2ccc(-c3csnn3)cc2)n1
    -0.81	.
Cn1c(-c2ccccc2)cnc1NCc1cc(Br)ccc1F
    -1.96	0.06
CC1=C(c2ccc(C(C)C)cc2)S(=O)(=O)N(CC(=O)O)C1=O
    0.42	0.61
Cn1c(C(=O)N2CCC(C(=O)NCCCN3CCCC3=O)CC2)cc2sccc21
    -1.39	1.03
Cc1ccc(S(=O)(=O)CCc2nc3ccccc3n2CC(=O)O)cc1
    -0.58	.
CC1=C(C(=O)OC2CCCC2)C(c2cc3c(cc2Cl)OCO3)C2=C(CCCC2=O)N1 (stereo not drawn)
    -2.23	0.8
Cc1ccccc1NC1=NCC(=O)N1c1cccc(Br)c1
    -1.21	-0.25
O=C(Cn1nc2c(cc1=O)CCCC2)Nc1ccc(F)cc1Cl
    .	1.53
Cc1nnsc1C(=O)NN(C)c1cnc2ccccc2n1
    0.1	.
COc1ccc(C2C(C(=O)c3ccc(C)o3)=C(O)C(=O)N2Cc2cccnc2)cc1 (stereo not drawn)
    -1.47	1.1
CC1CCCN(S(=O)(=O)c2cccc(-c3cn4cccnc4n3)c2)C1 (stereo not drawn)
    0.14	-2.61
COc1ccc(C2CC(=O)Nc3c2c(=O)nc(SCc2ccccc2)n3C)cc1Br (stereo not drawn)
    -1.5	0.25
O=C(Nc1ccccc1F)c1nn(-c2ccc(F)cc2)ccc1=O
    1.71	0.6
COc1ccc(-c2csc(C)n2)cc1S(=O)(=O)Nc1ccc(Br)cc1F
    .	1.05
O=C(CSc1ncn[nH]1)Nc1ncccn1
    -3.33	-0.1
CC(C)CCNC(=O)C1(C)Cn2nc(C(=O)NC(C)C)cc2C(=O)N1C (stereo not drawn)
    .	0.27
COc1ccc(-c2nc(COc3ccc(Cl)c(C)c3)no2)cc1OC
    -1.67	-1.81
COc1cc2c(cc1OC)C(C)N(C(=O)c1ccccc1)CC2 (stereo not drawn)
    -1.23	.
Cc1csc(NC(=O)C2c3ccccc3Oc3ccccc32)n1
    -0.59	.
CCOC(=O)Oc1ccc2c(=O)c(Oc3ccccc3Cl)coc2c1
    -0.06	0.25

# Three entries already listed, ordered by molar mass, rising:
# Every second line gives: CDC25B CDK2 inh	TAR Tat displ
Cc1csc(-c2ccc(-c3csnn3)cc2)n1
    -0.81	.
O=C1CC(c2cc(Br)cs2)c2cc3c(cc2N1)OCO3 (stereo not drawn)
    0.39	0.87
Cn1c(-c2ccccc2)cnc1NCc1cc(Br)ccc1F
    -1.96	0.06

# Some of the entries so far, in CSV form.
SMILES,CDC25B CDK2 inh,TAR Tat displ
O=C(Cn1c(=O)c2cccn2c2ccc(F)cc21)N1CCN(c2ccc(F)cc2)CC1,.,1.32
CC1CCCC(NS(=O)(=O)c2ccc(CN3C(=O)c4cccnc4C3=O)s2)C1C (stereo not drawn),.,-1.83
O=C1CC(c2cc(Br)cs2)c2cc3c(cc2N1)OCO3 (stereo not drawn),0.39,0.87
Cc1csc(-c2ccc(-c3csnn3)cc2)n1,-0.81,.
Cn1c(-c2ccccc2)cnc1NCc1cc(Br)ccc1F,-1.96,0.06
CC1=C(c2ccc(C(C)C)cc2)S(=O)(=O)N(CC(=O)O)C1=O,0.42,0.61

# Following part
# Every second line gives: CDC25B CDK2 inh	TAR Tat displ
CC1(C)CC(=O)C2=C(C1)Nc1ccccc1N(C(=O)CCC(=O)O)C2c1cccs1 (stereo not drawn)
    .	1.45
O=C(Cn1c(=O)sc2ccccc21)Nc1ccc(S(=O)(=O)N2CCOCC2)cc1
    0.02	2.83
CCCCNC(=O)CCc1nnc2ccc(NCc3ccc4c(c3)OCO4)nn12
    .	3.23
COc1ccc(-c2nnc(SC)o2)cc1
    -0.39	-0.05
Cc1ccc(-n2ncc3c(Nc4ccc(F)cc4)ncnc32)cc1
    .	2.06
Cc1ccc(-c2nnc(SCc3cc(=O)c4cc(C)cc(C)c4[nH]3)n2C)cc1
    .	-0.57
CCCn1nnc(NCc2ccc(OCc3ccc(C)cc3)cc2)n1
    .	1.56
Cn1cc(NC(=O)Nc2nccs2)c2ccccc2c1=O
    .	-1.19
CCCNC(=O)CCc1nc2cccnc2n1Cc1cccs1
    0.7	-2.5
CC1Cc2cc(S(=O)(=O)N3CCc4ccccc4C3)ccc2N1C(=O)C1CC1 (stereo not drawn)
    .	1.02
O=C(O)CCCc1nc(-c2cnc3n(c2=O)CCS3)no1
    -1.16	.
Cc1ccsc1CCNC(=O)c1cc(S(=O)(=O)N2CCOCC2)cn1C
    .	0.29
Cc1nc(-c2ccccc2)c2c(=O)cc(-c3ccccc3)[nH]c2n1
    0.52	-0.96
O=S(=O)(NCc1csc2ccc(Cl)cc12)c1ccc(C(F)(F)F)cc1
    -0.52	.
O=C(CCC(=O)c1ccccc1)OCc1ccccc1
    0.35	.
Cc1cc2n(n1)C(c1ccc(O)c(O)c1)Nc1ccccc1-2 (stereo not drawn)
    -2.11	1.02
O=C(CSc1nnc(SCC(=O)c2cccc([N+](=O)[O-])c2)s1)c1cccc([N+](=O)[O-])c1
    -1.33	.
CCn1cc(Cc2nnc(NC(=O)CSc3ccccc3)s2)c2ccccc21
    .	-1.36
c1ccc2c(-n3ccnc3)c3ccccc3nc2c1
    -3.17	.
COc1cccc(C2Nc3ccc(C)cc3-c3cc(C)nn32)c1O (stereo not drawn)
    -2.58	1.5
O=C1C(=O)N(Cc2cccnc2)C(c2cccnc2)/C1=C(\O)c1ccc(Cl)cc1 (stereo not drawn)
    -0.26	1.08
CC(C)OC(=O)c1sc2nc3c(cc2c1N)CN(C(C)C)CC3
    0.25	-2.18
CNC(=O)c1c(NC(=O)C2CC2)sc2c1CCC2
    .	0.23
C=C(C)Cn1c(N2CCCCCC2)nc2c1c(=O)[nH]c(=O)n2C
    -2.09	.
CCSc1nnc(NC(=O)c2nn(-c3ccc(CC)cc3)ccc2=O)s1
    1.19	0.22
CCCOC(=O)C1=C(C)NC2=C(C(=O)CC(C)(C)C2)C1c1ccc(O)cc1 (stereo not drawn)
    0.3	0.06
COc1ccc(OC)c(NS(=O)(=O)c2ccc3c(c2)oc(=O)n3C)c1
    -1.87	-0.93
Clc1ccc(-c2noc(CN3CCCC3)n2)cc1
    0.05	1.01
